Bioassay records (PubChem)
Cruzain Triton = cruzain (T. cruzi) inhibition with detergent | Potency, µM, without a hit: max response, negative = inhibition, hits mostly inhibitors | P25779 | actives 0.43% (n = 200,000) | purified cruzain, Z-FR-AMC fluorescence, 0.01% Triton; active = well fitted curve in the direction sought with a large enough effect; inconclusive = small, poorly fitted or top-dose-only effect, or another doubt; inactive = no such curve, though single readings can be large; an effect the other way counts as inactive or inconclusive;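 also: plate controls were neutral wells for no effect and buffer without enzyme for full effect; nearly all actives have a fitted effect of over 40% in size; top concentration of the series not given in the record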
Target sequence (P25779 123-467 limits assumed): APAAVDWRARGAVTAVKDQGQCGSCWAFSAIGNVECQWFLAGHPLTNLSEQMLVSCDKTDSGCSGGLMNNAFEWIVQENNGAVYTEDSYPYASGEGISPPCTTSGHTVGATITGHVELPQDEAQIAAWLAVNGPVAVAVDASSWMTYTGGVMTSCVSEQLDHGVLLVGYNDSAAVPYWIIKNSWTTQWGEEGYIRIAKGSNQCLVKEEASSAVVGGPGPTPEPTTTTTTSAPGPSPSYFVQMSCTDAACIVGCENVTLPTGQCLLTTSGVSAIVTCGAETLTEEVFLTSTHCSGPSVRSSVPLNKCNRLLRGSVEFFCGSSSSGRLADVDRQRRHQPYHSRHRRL
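15 min RT preincubation of 1.5 nM cruzain with compound, then 2 uM Z-FR-AMC added; kinetic AMC fluorescence, 60 s delta. Triton X-100 0.01%, pH 5.5.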
SARS PLpro yeast = inhibitors of SARS-CoV papain-like protease in yeast | S. cerevisiae expressing SARS-CoV PLpro, growth rescue; control for the full effect not named in the record | Potency, µM (series often up to 32.9 µM), for inactives: top-dose activity, positive = growth rescue | actives 0.19% (n = 330,000) | AID 485353; also: 0% is about no effect; nearly all actives have a fitted effect of over 55% in size; growth read by luminescence after 48 h
NS1 inh = blocks influenza NS1 protein function; S. cerevisiae slowed by influenza A NS1, growth recovery by OD600; Potency, µM (highest dose often 46.1 µM), without a hit: at the top dose activity, positive = more growth; actives 0.4% (n = 270,000); also: actives are rising curves; nearly all actives have a fitted effect of over 50% in size
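Read-out: OD600 growth recovery of NS1-expressing budding yeast. Cells grown overnight at 30C in -URA glucose medium, washed, resuspended and diluted 1:100 in 2% galactose assay medium, pH 6.0. Same strain lacking NS1 served as positive control.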
Lassa entry inh = inhibitors of Lassa virus binding or cell entry. Lassa virus pseudotype entry inhibition, cell reporter; control for the full effect not named in the record. actives 1.2% (n = 300,000). Potency, µM (series often up to 37.9 µM), without a hit: top-dose activity change, negative = inhibition, actives largely listed as inhibitors; active means well fitted inhibition curve with a large enough effect; inconclusive means small, poorly fitted or top-dose-only effect, or effect the other way; inactive means flat fitted curve, though single readings scatter; tested in HEK293 cells; also: % is scaled to controls: 0 for no effect and ±100 for the full control effect; nearly all actives have a fitted effect of over 50% in size; luciferase read-out
RE007 growth inh = less growth of the S. pombe RE007 Vpr strain | Potency, µM (titrated, usually from 92.2 µM), for the others: at the highest dose activity change, negative = less growth | actives 0.21% (n = 360,000) | S. pombe RE007 Vpr strain, BacTiter-Glo ATP luminescence, 24 h; control for the full effect not named in the record | AID 651644; active = well fitted falling curve with a large enough effect; inconclusive = small, poorly fitted or top-dose-only effect; inactive = no such curve, though single readings can be large or run the other way;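 also: % is scaled to controls: 0 for no effect and ±100 for the full control effect; nearly all actives have a fitted effect of over 50% in size; the assay follows cell death caused by Vpr and the record does not say whether a fall means rescue or toxicity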
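Fission yeast RE007 carrying one integrated HIV-1 vpr copy, seeded at OD 0.01 in PMG+AL medium with 23 nL pinned compound. Grown 24 h at 30 degrees; viability read by BacTiter-Glo luminescence after 5 min.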
MARV entry inh = inhibitors of Marburg virus binding or cell entry | Marburg virus pseudotyped entry inhibition, cell reporter; control for the full effect not named in the record; about a third of the inactives were read at about 46 µM | actives 1.8% (n = 300,000) | Potency, µM (doses to about 37.8 µM), for the others: at the highest dose activity change, negative = inhibition, usual class: inhibitors; active = well fitted inhibition curve with a large enough effect; inconclusive = small, poorly fitted or top-dose-only effect, or effect the other way; inactive = flat fitted curve, though single readings scatter; tested in HEK293 cells; about a fifth of its hits are not listed in these tables; also: % is scaled to controls: 0 for no effect and ±100 for the full control effect; luciferase read-out
StopGo reporter = lowers the luciferase signal of an FMDV 2A StopGo reporter | human cells with a luciferase reporter of 2A StopGo recoding; control for the full effect not named in the record | Potency, µM (series often up to 57.9 µM), for inactives: at the highest dose signal change, negative = less light | actives 1.2% (n = 410,000) | AID 1159524; active = well fitted falling curve with a large enough effect; inconclusive = small, poorly fitted or top-dose-only effect; inactive = no such curve, though single readings can be large or run the other way; tested in HEK293T cells; also: % is scaled to controls: 0 for no effect and ±100 for the full control effect; nearly all actives have a fitted effect of over 45% in size; luciferase light after 4 h
Cruzain noTriton = inhibitors of Trypanosoma cruzi cruzain without detergent. Potency, µM, for inactives: max response, negative = inhibition, hits mostly inhibitors. actives 2.3% (n = 200,000). P25779. purified cruzain, Z-FR-AMC fluorescence, no detergent; active = well fitted curve in the direction sought with a large enough effect; inconclusive = small, poorly fitted or top-dose-only effect, or another doubt; inactive = no such curve, though single readings can be large; an effect the other way counts as inactive or inconclusive;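 also: plate controls were enzyme without inhibitor for no effect and buffer without enzyme for full effect; nearly all actives have a fitted effect of over 40% in size; top concentration of the series not given in the record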
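Purified cruzain at 1.5 nM, pre-incubated 15 min with compound at room temperature in 100 mM sodium acetate pH 5.5, 5 mM DTT, 0.00005% Triton X-100. Reaction started with 2 uM Z-FR-AMC; AMC fluorescence increase over 60 s gives rate.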
* hit, by the source's call; ? = inconclusive; / = no result given; & = joins results of further samples; [ ] = dose if it differs, or a comment. Unless noted, calls follow the shape of the dose curve; as a rule, active means well fitted rising curve with a large enough effect; inconclusive means small, poorly fitted or top-dose-only effect; inactive means no such curve, though single readings can be large or run the other way. Potency is read from the fitted curve at half-maximal effect.

SMILES	Cruzain Triton	SARS PLpro yeast	NS1 inh	Lassa entry inh	RE007 growth inh	MARV entry inh	StopGo reporter	Cruzain noTriton
O=C(Oc1ccc(C(=S)N2CCOCC2)cc1)c1ccc([N+](=O)[O-])cc1	/	-3%	7%	/	-3%	/	-2%	/
CCOc1ccc(-c2noc(CCC(=O)NCC3CCCO3)n2)cc1OC (stereo unspecified)	/	-1%	1%	18%	6%	13%[46.1 µM]	6%	/
Cc1c(Nc2scc(-c3ccccc3)[n+]2-c2ccccc2)c(=O)n(-c2ccccc2)n1C	/	-4%	0%	-10%	0%	4%[46.1 µM]	?	/
O=C(CCNC(=O)c1ccc([N+](=O)[O-])cc1)Nc1ccc(S(=O)(=O)N2CCOCC2)cc1	/	-5%	/	4%	3%	14%	-10%	/
CCN(CC(=O)NCc1cccs1)C(=O)/C=C/c1cccc(Br)c1	/	-4%	/	1%	5%	0%	-11%	/
COc1cccc(CNC(=O)c2ccc3c(c2)nnn3C2CCCC2)c1	-2.8%	/	/	-11%[46.1 µM]	/	/	-13%	1%
N#Cc1ccccc1NC(=O)CNc1ccc(Cl)c(C(F)(F)F)c1	-0.4%	-12%	-7%	0%	0%	16%	-21%	6%
CCOc1ccc(NC2C=CS(=O)(=O)C2)cc1 (stereo unspecified)	-3.6%	13%	7%	8%	0%	?	-26%	-1%
COCCCNC(=O)CN1CCN(Cc2ccccc2Cl)C1=O	4.6%	2%	13%	/	-8%	/	21%	0%
COc1cccc(C2/C(=C(/O)c3ccc4c(c3)OCO4)C(=O)C(=O)N2CCN2CCOCC2)c1 (stereo unspecified)	/	2%	21%	/	14%	/	6%	/
CSc1nn(Cc2cccc(F)c2)c(N(C(C)=O)C(C)=O)c1S(=O)(=O)c1ccccc1	-4.7%	/	/	?	/	-19%[46.1 µM]	-3%	10%
Cc1ccn2c(c1)nc(=S)n2C(=O)c1ccccc1	-9.2%	-26%	-15%	?	-2%	?	-27%	-9%
OCCCNCc1ccc(Cl)cc1Cl	/	1%	-3%	-6%	-8%	/	-10%	/
COc1cc(C(c2c(C)[nH][nH]c2=O)c2c(C)[nH][nH]c2=O)ccc1OS(=O)(=O)c1ccccc1	-3.9%	11%	8%	45%[14.3 µM]	5%	6%	3%	1%
COCCN(CCOC)S(=O)(=O)c1ccc(C(=O)Nc2nnc(C3CC3)o2)cc1	4.8%	1%	-8%	-21%	-9%	23%	-21%	4%
O=C(COC(=O)C1CCN(c2ccc(C(F)(F)F)cn2)CC1)c1ccccc1Cl	/	0%	/	15%	12%	?	-10%	/
O=c1[nH]c2ccccc2nc1NCc1ccccc1	/	-1%	-12%	-29%[46.1 µM]	2%	7%[46.1 µM]	-8%	/
O=C(CN1CCN(c2ccc(O)cc2)CC1)NC(c1ccccc1)c1ccccc1	-3.8%	1%	?	4%	9%	28%	-29%	13%
Cc1ccc(-c2cc(C(=O)OCn3nnc4ccccc4c3=O)c3ccccc3n2)cc1	-8.8%	3%	4%	12%	3%	-2%	12%	?
CC(C)(C)c1ccc(C(=O)N2CCC3(CC2)NCCc2[nH]cnc23)cc1	/	26%	-4%	16%[46.1 µM]	-4%	-10%[46.1 µM]	-4%	/
Cc1ccccc1/C=N\NC(=O)c1ccccc1-n1cccc1	/	-1%	/	13%	9%	8%[14.2 µM]	-17%	/
Cc1ccnc(NC(=S)NC(=O)/C=C/c2ccccc2)c1	-3.6%	-1%	11%	21%	-6%	4%	/	?
CCOC(=O)c1c(NC(NC(C)=O)C(Cl)(Cl)Cl)sc(C(C)=O)c1C (stereo unspecified)	-12%	2%	12%	-11%	0%	?	-11%	?
Cc1ccc(OCC(=O)n2nc(C)cc2C)c(C)c1	3.1%	6%	-6%	-1%	-26%	-1%	-13%	4%
Oc1ccccc1N1CCN(C(=S)Nc2ccc(SC(F)F)cc2)CC1	/	-2%	/	5µM*	4%	?	?	/
Cc1ccccc1OCC(=O)Nc1ccncc1	/	?	-3%	6%	9%	-10%	?	/
COc1ccc(C(=O)Nc2ccc(Cl)cc2C(=O)N2CCCC(C)C2)cc1OC (stereo unspecified)	-2.1%	15%	0%	4%	0%	?	0%	?
CCOCC(=O)Nc1nc(C)cc(C)n1	-2.6%	-2%	14%	4%	0%	1%	-6%	3%
CCN1CCN(C(=O)c2ccc3c(c2)N(Cc2cc(C)ccc2C)C(=O)c2ccccc2S3=O)CC1 (stereo unspecified)	-0.8%	/	/	-26%[46.1 µM]	/	3%[46.1 µM]	-21%	-9%
Cc1nn(CC(=O)O)c2ccccc12	2.7%	4%	1%	13%	-5%	?	/	0%
Cc1cccc(C(=O)NC(=S)N2CCN(C)CC2)c1	4.9%	2%	7%	1%	19%	22%	13%	-1%
Cc1nc(Cl)sc1C(=O)Nc1ccc(F)cc1	/	/	/	-4%[46.1 µM]	10%	12%[46.1 µM]	7%	/
CCN(CC(=O)Nc1sc2c(c1C#N)CCC(C)C2)Cc1nc2ccccc2c(=O)[nH]1 (stereo unspecified)	/	-1%	/	10%[46.1 µM]	43%	?	-8%	/
O=C(NC1CCCCC1)Oc1ccccc1	/	0%	-4%	-2%	-10%	17%	54%[activator]	/
CSc1nc(-c2ccco2)nn1C(=O)c1ccccc1Cl	/	-2%	-4%	14%	7%	7%[46.1 µM]	?	/
N/C(=N\OC(=O)c1ccccc1)C(Cc1ccccc1)C(=O)NOC(=O)c1ccccc1 (stereo unspecified)	/	/	/	?	-29%	?	?	/
Cc1cc(Cl)ccc1NC(=S)NCCCO	-1.6%	14%	14%	0%	0%	-4%	3%	0%
O=C(c1ccc(Cl)c(S(=O)(=O)N2CCCCCC2)c1)N1CCN(c2ccccn2)CC1	2.0%	-7%	-9%	?	-1%	?	28µM*	1%
Cc1ccccc1Cn1c(SCc2ccc(C(=O)NC(C)c3ccccc3)cc2)nc2ccncc21 (stereo unspecified)	-4.3%	/	/	-6%[46.1 µM]	/	?	-22%	-26%
CC(CCc1ccccc1)NC(=O)COC(=O)c1ccc(S(C)(=O)=O)c([N+](=O)[O-])c1 (stereo unspecified)	/	2%	/	?	17%	?	?	/

Four entries picked at random from the list so far:
SMILES	Cruzain Triton	SARS PLpro yeast	NS1 inh	Lassa entry inh	RE007 growth inh	MARV entry inh	StopGo reporter	Cruzain noTriton
Cc1ccnc(NC(=S)NC(=O)/C=C/c2ccccc2)c1	-3.6%	-1%	11%	21%	-6%	4%	/	?
COc1cc(C(c2c(C)[nH][nH]c2=O)c2c(C)[nH][nH]c2=O)ccc1OS(=O)(=O)c1ccccc1	-3.9%	11%	8%	45%[14.3 µM]	5%	6%	3%	1%
O=C(Oc1ccc(C(=S)N2CCOCC2)cc1)c1ccc([N+](=O)[O-])cc1	/	-3%	7%	/	-3%	/	-2%	/
CC(C)(C)c1ccc(C(=O)N2CCC3(CC2)NCCc2[nH]cnc23)cc1	/	26%	-4%	16%[46.1 µM]	-4%	-10%[46.1 µM]	-4%	/

Continuation.
SMILES	Cruzain Triton	SARS PLpro yeast	NS1 inh	Lassa entry inh	RE007 growth inh	MARV entry inh	StopGo reporter	Cruzain noTriton
CCC1CCCCN1C(=O)Cn1c(=O)n(CC2CCC(C(=O)NC)CC2)c(=O)c2sccc21 (stereo unspecified)	-1.4%	/	/	-5%[46.1 µM]	/	/	-24%	2%
COc1ccc(-c2cc(C)no2)cc1S(=O)(=O)N1CC(C)Oc2ccccc21 (stereo unspecified)	3.3%	/	/	?	/	/	7%	6%
COC(=O)c1cc(Br)c(N)cc1OC	/	0%	-4%	28%[46.1 µM]	2%	?	4%	/
Cn1c(-c2ccc(F)cc2)cnc1SCC(=O)N1CCCCC1	1.6%	2%	-7%	?	11%	?	-21%	3%
Cc1ccc(OCCCCN2CCCC(C)C2)c([N+](=O)[O-])c1 (stereo unspecified)	/	1%	-1%	-11%	-5%	?	5%	/
O=C(CSc1nc2ccccc2o1)N/N=C/c1ccco1	/	-2%	-13%	/	16%	/	25%	/
COc1ccc(Br)cc1CNC(=O)C1CCN(S(=O)(=O)N2CCCCC2)CC1	1.4%	-6%	-112%	-4%	-27%	-5%	/	18%
Cc1cc(NC(=O)C(C)SCC(=O)Nc2cc(Cl)ccc2N2CCN(C)CC2)no1 (stereo unspecified)	/	-2%	/	-2%	1%	-4%	-16%	/
O=C(CCc1ccccc1)NC(=S)Nc1ccccc1[N+](=O)[O-]	/	1%	-21%	/	-1%	/	5%	/
COCCNC(=O)Cn1cc2c(n1)CCC(C)C2 (stereo unspecified)	-1.4%	-4%	3%	/	3%	/	-23%	-7%

An excerpt from above, reduced to MARV entry inh, Lassa entry inh and Cruzain noTriton.
molecule	MARV entry inh	Lassa entry inh	Cruzain noTriton
COCCNC(=O)Cn1cc2c(n1)CCC(C)C2 (stereo unspecified)	/	/	-7%
Cn1c(-c2ccc(F)cc2)cnc1SCC(=O)N1CCCCC1	?	?	3%

Later entries:
SMILES	Cruzain Triton	SARS PLpro yeast	NS1 inh	Lassa entry inh	RE007 growth inh	MARV entry inh	StopGo reporter	Cruzain noTriton
CC(=O)Nc1ccc(OC(=O)c2ccccc2N)cc1	-3.5%	-10%	2%	-24%	-10%	15%	/	3%
CN1CCN(c2nc3ccccc3nc2C(C#N)C(=O)OC2CCCCC2)CC1 (stereo unspecified)	-6.4%	15%	-7%	-10%	9%	-42%&-42%	10%	-10%
CSC1=NCCN1C(=O)c1c(-c2ccccc2Cl)noc1C	-5.0%	2%	?	/	9%	4%	-24%	1%
O=C(CSc1nnc(-c2ccncc2)n1Cc1ccco1)c1ccc(Cl)cc1	2.0%	-6%	-18%	20%	-1%	4%	-29%	-13%
CCN1CCN(c2nc(N)c([N+](=O)[O-])c(Nc3ccc(C)c(C)c3)n2)CC1	-8.9%	7%	4%	12%	-10%	11%	-8%	1%
COP(=O)(OC)c1nc(-c2ccccc2)oc1NCc1ccccc1	-2.4%	?	-1%	1%	7%	-18%	28%	27%
Cc1ccc(S(=O)(=O)/N=C2/C=C(C3C(=O)CC(C)(C)CC3=O)C(=O)c3ccccc32)cc1	-5.6%	-23%	-12%	-9%	?	?	-34%	-16%
